High-throughput results from PubChem.
BmaI1 enzyme: BmaI1 acyl-homoserine lactone synthase inhibition – biochemical, fluorescence intensity, with counterscreen (AID 720554); BmaI1 enzyme assay, fluorescence intensity; active compounds read high; test concentration not given here; a few actives read low; strong numbers were not always called active; inhibition, %; 0.4% of 12,000 active;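 active = both replicates within 2 robust z-scores of the inhibited control and a quiet counterscreen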;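 also: 0% = uninhibited enzyme and 100% = inhibited control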
BmaI1 enzyme counterscreen: further read-out of BmaI1 enzyme, marked with its call; inhibition, %; measured here: counterscreen; design of the counterscreen not given here;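 first of two replicates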
* marks the source's active call; other numbers are inactive results. These rows are one share of the data, so the mix of outcomes need not match the whole.

SMILES,BmaI1 enzyme counterscreen,BmaI1 enzyme
C/C(N)=C(/C#N)C(=O)CSCc1ccccc1C,-6,-6
Cc1ccc(Sc2ncccc2C(=O)NCc2ccco2)cc1,2,4
CCOC(=O)c1[nH]c(COC(=O)C(NS(=O)(=O)c2ccc(Cl)cc2)C(C)O)c(C(=O)OCC)c1C (configuration not stated),16,12
Cc1cccc(N2CCN(S(=O)(=O)c3ccc(Cl)nc3)CC2C)c1 (configuration not stated),6,10
CCOC(=O)C1=C(C)NC(C)=C(C(=O)OC)C1c1cccc([N+](=O)[O-])c1 (configuration not stated),-2,-5
Cc1cc(C(=O)Cn2ncc(Cl)c(Cl)c2=O)c(C)n1-c1ccc2c(c1)OCCO2,2,2
CN(C(=O)CN1CCc2ccccc2C1)c1c(N)n(Cc2ccccc2)c(=O)[nH]c1=O,6,6
CCOc1ccc(NC(=O)c2ccc(NC(=O)CSc3nnc(C)n3C3CC3)cc2)cc1,4,12
CC1=CC(=C(C#N)C#N)c2ccccc2N1C,-8,-9
O/N=C/c1ccc(N2CCOCC2)s1,25,64
Cc1ccc(C)c(OCCC(=O)Nc2ccc3c(c2)OCO3)c1,3,14
COCC(C)n1c(SCC(=O)c2ccc[nH]2)nc2ccccc2c1=O (configuration not stated),14,10
C=CCNC(=S)NNc1ccccc1Cl,-43,-22
O=C(CN1C(=O)c2ccccc2C1=O)OC1CCOC1=O (configuration not stated),-7,10
O=C(CSc1nc2ccccc2c(=O)n1CCCN1CCOCC1)c1ccccc1,16,16
CCN(CC(=O)Nc1cc(Cl)ccc1C)C(=O)C1CCCCC1,2,4
CC1CC1c1ccc(/C=C/C(=O)O)o1 (configuration not stated),0,32
CCc1nc2ccccc2c(C(=O)OCC#N)c1C,2,14
CN(CC(=O)NC1=NCCS1)S(=O)(=O)c1ccc(Cl)cc1,7,4
COc1ccccc1C(C)NCC(=O)Nc1cc(C)on1 (configuration not stated),-10,-4
O=C(CSc1nnc(-c2ccco2)o1)NCCCN1CCCC1=O,10,18
CCCn1c(SCc2nc(N)nc(Nc3ccccc3C)n2)nnc1-c1ccncc1,-6,20
O=C(COc1ccc(-n2cnnn2)cc1)NCCc1ccc(F)cc1,18,9
N#Cc1ccc(COC(=O)c2cncn2-c2ccc(F)cc2)cc1,0,22
Nc1nccnc1C(=O)OCC(=O)N(c1ccccc1)C1CCCCC1,4,3
CC(C)c1ccc(NC(=O)CN(c2ccnn2C(C)C)S(=O)(=O)c2ccccc2)cc1,12,10
Cc1cccc(NC(=O)COC(=O)/C=C/c2ccc(C)o2)c1,2,34
CCCN(CC(=O)Nc1ccc(F)c(F)c1F)CC(=O)Nc1c(C)n(C)n(-c2ccccc2)c1=O,-8,-8
Cc1cc(C)n(CCc2nc(-c3ccc(C)c(C)c3)cs2)n1,6,52
Cc1cc(C(=O)CN2C(=O)C3CC=CCC3C2=O)c(C)n1CC1CCCO1 (configuration not stated),8,10
O=c1[nH]nc(-c2nnc3n2CCCCC3)c2ccccc12,-2,-4
C[C@H]1O[C@H](O[C@H]2[C@H](O)[C@@H](O)[C@@H](O[C@H]3[C@H](O)[C@@H](O)C(O)O[C@@H]3CO)O[C@@H]2CO)[C@H](O)[C@@H](O)[C@@H]1N[C@H]1C=C(CO)[C@@H](O)[C@H](O)[C@H]1O (some centres not stated),9,8
CCOC(=O)C1=C(CSc2nc3cc(C(=O)OC)ccc3c(=O)n2Cc2ccco2)NC(=O)NC1,6,8
C/C(Nc1nc(-c2cc(C)n(CCc3ccccc3)c2C)cs1)=C(/C#N)C(N)=O,10,16
O=C(NCCO[N+](=O)[O-])c1cccnc1,0,5
O=C(Oc1ccc2c(c1)OCO2)C1COc2ccccc2O1 (configuration not stated),14,79
N#Cc1ccccc1COC(=O)c1cc[n+]([O-])cc1,-2,-1
Cn1c(N)c(C(=O)CN(Cc2ccccc2)Cc2ccccc2)c(=O)n(C)c1=O,11,14
O=S(=O)(N(c1ccc(Br)cc1)C(F)F)C(F)(F)F,5,9
Cc1nn(-c2ccc(F)cc2)c(Cl)c1/C=C/C(=O)OCC(=O)Nc1c(C#N)oc2ccccc12,4,12
Nc1nc2c(ncn2COCCO)c(=O)[nH]1,31,6
COc1ccc2c(CN3CC=C(c4ccccc4)CC3)cc(=O)oc2c1,8,4
Cc1cccc(-c2nnc(SCN3C(=O)c4ccccc4C3=O)n2C)c1,6,10
CC(=O)N1CCN(S(=O)(=O)c2cccc(C(=O)OCc3cc(=O)n4cc(Br)ccc4n3)c2)CC1,5,12
CCc1ccc(NC(=O)C2=CC=CN3CCS(=O)(=O)N=C23)cc1,8,10
O=C(CSc1ncccn1)N1N=C(c2ccc(Cl)cc2)CC1c1ccco1 (configuration not stated),6,16
Cc1ccc(S(=O)(=O)N(C)c2nc3ccccc3nc2Cl)cc1,7,26
CN(CC(=O)NCCc1ccc(Cl)cc1)CC1COc2ccccc2O1 (configuration not stated),8,14
COc1cccc(-c2nn(-c3ccc(F)cc3)cc2C(=O)N2CCN(c3ccccc3O)CC2)c1,16,65
COc1ccccc1-n1c(C)cc(/C=C(\C#N)C(=O)OCc2nnc(-c3ccccc3)o2)c1C,4,7

Next compounds.
SMILES,BmaI1 enzyme counterscreen,BmaI1 enzyme
CCOc1ccc(N2C(=O)c3ccc(OC)c(OC)c3C2=O)cc1,2,6
CC(C)n1ncc2c(C(=O)O)cc(C3CC3)nc21,4,12
O=C1CCCN1Cc1nnc(SCc2c(Cl)cccc2Cl)o1,-2,2
Cc1[nH]c(=O)c(C#N)c(C)c1CCC(=O)N[C@@H](Cc1ccccc1)c1nc2ccccc2[nH]1,8,16
COc1cc(C(=O)COC(=O)C2CC(=O)N(Cc3ccco3)C2)cc(OC)c1OC (configuration not stated),12,18
O=C(/C=C/c1ccc(S(=O)(=O)N2CCOCC2)cc1)N(c1ccccn1)C1CCCCC1,6,12
CNCc1ccc(OC)cc1,6,17
CCc1ccc(OCC(=O)N/N=C(\C)c2ccc(-n3ccnc3)cc2)cc1,25,18
O=C1CC2(CCCC2)CC(=O)N1CCNCC1COc2ccccc2O1 (configuration not stated),7,-5
O=C(O)CC(N=C1NS(=O)(=O)c2ccccc21)c1ccc(Cl)cc1 (configuration not stated),2,-4
Cc1cc(C)c(C#N)c(SCCCCN2C(=O)c3ccccc3C2=O)n1,10,12
CCC(=O)c1ccc(OCC(=O)N2Cc3ccccc3CC2C(=O)O)cc1 (configuration not stated),0,12
Cc1cc(C)nc(SCC(=O)OCCN2C(=O)c3ccccc3C2=O)n1,10,18
O=C1c2ccccc2C(=O)N1CCSc1n[nH]c(=O)n1Cc1ccccc1,6,6
O=C(COC(=O)c1cc(=O)c2ccccc2o1)c1ccc2[nH]c(=O)[nH]c2c1,4,6
COC(=O)Cc1c(C(=O)OC)sc(N)c1C#N,0,6
CCCn1nc(C(=O)Nc2ccc3nc(N4CCOCC4)sc3c2)ccc1=O,10,9
CC1=C(C)SC(=C(C#N)c2nc(-c3ccccc3)cs2)S1,4,10
O=P1(N2CCOCC2)C=C(c2ccccc2)c2cc(Cl)ccc2O1 (configuration not stated),6,10
Cc1cc(C(=O)CSc2cc(C(=O)c3nccn3C)c3ccccc3n2)c(C)n1C1CC1,21,14
O=C(CCNS(=O)(=O)c1cccs1)NC1CCCc2ccccc21 (configuration not stated),2,0
O=C(CSc1nc2cc(S(=O)(=O)N3CCCCC3)ccc2o1)Nc1ccccc1F,7,9
CC(=O)Nc1cccc(C(=O)OCCN2C(=O)c3ccccc3C2=O)c1,-14,-22
O=C1/C(=N\n2cnc3c(cnn3-c3ccccc3)c2=O)c2ccccc2N1CO,10,26
CSc1ncccc1C(=O)OCc1ccccc1F,3,14

Part of the list above in order of molecular weight, rising.
SMILES,BmaI1 enzyme counterscreen,BmaI1 enzyme
CNCc1ccc(OC)cc1,6,17
CC(C)n1ncc2c(C(=O)O)cc(C3CC3)nc21,4,12
COC(=O)Cc1c(C(=O)OC)sc(N)c1C#N,0,6
CSc1ncccc1C(=O)OCc1ccccc1F,3,14
CCOc1ccc(N2C(=O)c3ccc(OC)c(OC)c3C2=O)cc1,2,6
CC1=C(C)SC(=C(C#N)c2nc(-c3ccccc3)cs2)S1,4,10
CCc1ccc(NC(=O)C2=CC=CN3CCS(=O)(=O)N=C23)cc1,8,10
Cc1ccc(S(=O)(=O)N(C)c2nc3ccccc3nc2Cl)cc1,7,26
CC(=O)Nc1cccc(C(=O)OCCN2C(=O)c3ccccc3C2=O)c1,-14,-22
O=C1CCCN1Cc1nnc(SCc2c(Cl)cccc2Cl)o1,-2,2
CCc1ccc(OCC(=O)N/N=C(\C)c2ccc(-n3ccnc3)cc2)cc1,25,18
O=C(CCNS(=O)(=O)c1cccs1)NC1CCCc2ccccc21 (configuration not stated),2,0
Cc1cc(C)c(C#N)c(SCCCCN2C(=O)c3ccccc3C2=O)n1,10,12
CCC(=O)c1ccc(OCC(=O)N2Cc3ccccc3CC2C(=O)O)cc1 (configuration not stated),0,12
Cc1cc(C)nc(SCC(=O)OCCN2C(=O)c3ccccc3C2=O)n1,10,18
CN(CC(=O)NCCc1ccc(Cl)cc1)CC1COc2ccccc2O1 (configuration not stated),8,14
O=C1c2ccccc2C(=O)N1CCSc1n[nH]c(=O)n1Cc1ccccc1,6,6
O=C1/C(=N\n2cnc3c(cnn3-c3ccccc3)c2=O)c2ccccc2N1CO,10,26
CCCn1nc(C(=O)Nc2ccc3nc(N4CCOCC4)sc3c2)ccc1=O,10,9
COc1cc(C(=O)COC(=O)C2CC(=O)N(Cc3ccco3)C2)cc(OC)c1OC (configuration not stated),12,18
Cc1[nH]c(=O)c(C#N)c(C)c1CCC(=O)N[C@@H](Cc1ccccc1)c1nc2ccccc2[nH]1,8,16
Cc1cc(C(=O)CSc2cc(C(=O)c3nccn3C)c3ccccc3n2)c(C)n1C1CC1,21,14
O=C(CSc1nc2cc(S(=O)(=O)N3CCCCC3)ccc2o1)Nc1ccccc1F,7,9
COc1ccccc1-n1c(C)cc(/C=C(\C#N)C(=O)OCc2nnc(-c3ccccc3)o2)c1C,4,7
O=C(/C=C/c1ccc(S(=O)(=O)N2CCOCC2)cc1)N(c1ccccn1)C1CCCCC1,6,12
COc1cccc(-c2nn(-c3ccc(F)cc3)cc2C(=O)N2CCN(c3ccccc3O)CC2)c1,16,65
CC(=O)N1CCN(S(=O)(=O)c2cccc(C(=O)OCc3cc(=O)n4cc(Br)ccc4n3)c2)CC1,5,12

Additional entries.
SMILES,BmaI1 enzyme counterscreen,BmaI1 enzyme
CCOC(=O)c1sc(/N=C/N(C)C)nc1C,0,12
c1ccc2c(c1)Nc1ccccc1S2,32,64
Cc1sc2nc(CC(=O)NN)[nH]c(=O)c2c1C,0,20
O=c1[nH]c(CN2CCN(Cc3ccccc3)CC2)nc2sc3c(c12)CCC3,-4,-3
Cc1cc(C)c2c(n1)sc1c(=O)n(CC(=O)O)cnc12,-1,10
CCc1ccc(-c2nn(Cc3ccccc3)cc2C(=O)N2CCN(CCN3CCCC3)CC2)cc1,-4,-2
Cc1cc(C(=O)OC(C)C(=O)Nc2cccc(C(F)(F)F)c2)c(C)o1 (configuration not stated),0,5
Cc1c(Cl)cnc(NC(=O)COC(=O)COc2ccc3c4c(c(=O)oc3c2)CCC4)c1Cl,-8,-4
O=C(OCC(=O)N1CCc2ccccc2C1)c1sc2sccc2c1Cl,10,10
O=C(COc1ccc2c(c1)OCO2)NC12CC3CC(CC(C3)C1)C2,2,6
O=C(CSC1CCCC1)Nc1ccc(N2CCOCC2)cc1,-2,4
COc1cccc(/C=C/C(=O)NC2=NCCS2)c1,8,6
COc1ccc(S(=O)(=O)N2CC(O)CC2C(=O)OCc2nc3sc(C)c(C)c3c(=O)[nH]2)cc1 (configuration not stated),2,20
CCCn1c(SCc2c(C)noc2C)nc2ccccc2c1=O,1,12
COc1ccccc1C(=O)NCCC(=O)NC1CCCCCC1,-6,13
C=CCc1cc(C)ccc1OCCNC(C)C,2,4
CCCCN1C(=O)CCC(C(=O)O)C1c1ccccc1OC (configuration not stated),-1,2
CCOc1ccc(Nc2ccc(S(=O)(=O)N3CCOCC3)cn2)cc1,6,14
CCn1c(=O)[nH]c(=O)c2c(C(F)(F)F)cc(-c3ccc(C)cc3)nc21,1,8
O=C(OC1CCOC1=O)c1ccc2c(c1)C(=O)N(Cc1ccccc1)C2=O (configuration not stated),5,18
Cc1cc(=O)[nH]c(SCC(=O)N2c3ccccc3CCc3ccccc32)n1,9,16
CCNC(=O)NCCC12CC3CC(CC(C3)C1)C2,6,12
CO[C@H]1O[C@@H]2O[C@@]3(C)CC[C@H]4[C@H](C)CC[C@@H]([C@H]1C)[C@@]24OO3,12,5
COc1ccc(-c2nnc(SCCOc3ccc(Cl)cc3)o2)cc1,0,4
CCOc1cc(C(=O)OCCN2C(=O)c3ccccc3C2=O)ccc1OCC(=O)N1CCCCC1,11,14
O=C(COc1ccc(-c2nnco2)cc1)N(c1ccccc1)C1CCCCC1,-2,12
CN(C)CCc1c[nH]c2ccc(Cn3cncn3)cc12,-14,-16
COc1ccc(Cl)cc1NC(=O)CN(C)C(=O)c1cccnc1SCc1c(C)noc1C,16,16
